From PubChem BioAssay
AID923 – qHTS Assay for Allosteric/Competitive Inhibitors of Caspase-1: Spectroscopic Profiling in AFC Spectral Region; AID 923, 2007; actives 1.1% (n = 75,000); Potency, µM (highest dose often 57.5 µM), inactives show at the top dose fluorescence increase, most hits filed as activators; compound fluorescence, AFC spectral region (405/520 nm); almost no hit is shown here; active means well fitted activation curve with a large enough effect; inconclusive means small, poorly fitted or top-dose-only effect;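 further: potency means the concentration at half of the fitted maximal effect; 0% is about no effect; scaled to a free AFC standard on each plate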
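Baseline compound fluorescence (AFC region, 405 nm ex/520 nm em) taken from the intercept of kinetic reads with 50 nM caspase-1 and 5 uM Ac-WEHD-AFC; normalized to an on-plate AFC standard curve; compounds titrated up to 57 uM.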
TSHR ag – agonists of human thyroid stimulating hormone receptor; Potency, µM (doses to about 57.1 µM), for inactives: at the top dose activation, actives largely listed as activators; HEK293-CNG-TSHR cells (CNG channel as cAMP sensor), membrane potential dye, cAMP; actives 0.48% (n = 73,000); P16473; active = well fitted activation curve of enough size with the parental cells flat; inconclusive = any curve in the parental cells; inactive = parental cells flat and receptor cells flat or falling; further: potency means the concentration at half of the fitted maximal effect; % of control where 0% means no effect; weak receptor curves with flat parental cells got no call and are not listed
Target sequence (P16473 whole entry, looked up): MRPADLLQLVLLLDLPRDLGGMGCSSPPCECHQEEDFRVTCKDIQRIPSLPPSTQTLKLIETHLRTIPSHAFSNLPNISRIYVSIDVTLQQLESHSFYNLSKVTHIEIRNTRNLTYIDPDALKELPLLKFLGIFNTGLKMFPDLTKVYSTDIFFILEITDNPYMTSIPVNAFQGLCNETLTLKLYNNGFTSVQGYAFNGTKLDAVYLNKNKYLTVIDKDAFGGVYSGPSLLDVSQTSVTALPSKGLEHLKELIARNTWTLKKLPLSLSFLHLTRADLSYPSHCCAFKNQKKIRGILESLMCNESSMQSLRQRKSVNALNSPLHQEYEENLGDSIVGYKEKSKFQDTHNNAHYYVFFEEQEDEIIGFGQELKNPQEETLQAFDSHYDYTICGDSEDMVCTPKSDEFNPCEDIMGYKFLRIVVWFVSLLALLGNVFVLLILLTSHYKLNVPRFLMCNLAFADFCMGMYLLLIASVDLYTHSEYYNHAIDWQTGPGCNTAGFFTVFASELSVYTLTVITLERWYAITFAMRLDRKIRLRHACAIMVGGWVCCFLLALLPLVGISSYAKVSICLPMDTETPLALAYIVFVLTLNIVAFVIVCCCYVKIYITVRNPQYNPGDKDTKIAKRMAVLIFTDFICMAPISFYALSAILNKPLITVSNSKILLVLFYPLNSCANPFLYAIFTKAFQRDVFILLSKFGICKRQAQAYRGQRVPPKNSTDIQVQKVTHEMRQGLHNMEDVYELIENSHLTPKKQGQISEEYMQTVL
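cAMP rise detected as CNG-channel membrane depolarization by fluorescent dye (emission 590 nm), 30 min after compound, following 60 min dye loading containing 100 uM RO 20-1724 at room temperature. Cells: TSHR/CNG HEK 293, with parental CNG HEK 293 as control.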
Resorufin fluor – compounds fluorescent in resorufin spectral region; Compound fluorescence, resorufin region 547/598 nm, buffer; stronger effect = higher value; max dye-equivalent concentration, M; actives 0.04% (n = 59,000); active = above 10 nM dye equivalent; inconclusive = 1 to 10 nM; inactive = 1 nM or less; a few of its hits are not listed in these tables; further: highest value over a series up to 38 µM
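Intrinsic fluorescence profiled in the resorufin window (ex 547 nm, em 598 nm) after 15 min at room temperature in pH 8.0 Tris buffer (100 mM); responses normalized against a six-point resorufin standard series as dye-equivalent concentration.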
A647 fluor – compound autofluorescence in A647 spectral region; Compound fluorescence, A647 channel (570/671 nm), Tris buffer; max dye-equivalent concentration, M; 59,000 tested, under 10 active; AID 592; active means above 1 µM dye equivalent; inconclusive means 0.1 to 1 µM; inactive means 0.1 µM or less;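 further: values scaled relative to a standard on each plate; highest value over a series up to 38 µM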
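Compound fluorescence was measured in 100 mM Tris buffer, pH 8.0, after 15 min at room temperature, using 570 nm excitation and 671 nm emission filters. Signal was normalized to a per-plate Alexa 647 standard curve and expressed as dye-equivalent concentration at each compound concentration.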
A488 fluor – A488 region autofluorescence; actives 0.1% (n = 59,000); max dye equivalency, M; compound autofluorescence, A488 spectral region, dye equivalency; stronger effect = higher value; active = above 10 nM dye equivalent; inconclusive = 1 to 10 nM; inactive = 1 nM or less; about half of its hits are not listed in these tables;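 further: highest value over a series up to 38 µM; compound alone in buffer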
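Read-out: relative fluorescence at 480/540 nm, expressed as Alexa 488 dye-equivalent concentration from a six-point A488 standard included per plate. Conditions: 100 mM Tris, pH 8.0; 15 min incubation, room temperature.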
The depositor's hits bear a star; i = inactive; ? = inconclusive; . = no result given; [ ] = dose if it differs, or a comment. Some of the compounds tested; rates above refer to the full screens.

SMILES	AID923	TSHR ag	Resorufin fluor	A647 fluor	A488 fluor
CCOC(=O)/C=C1\CC(=O)Nc2cc(C)c(C)cc2N1	-0.8%	8.8%	i	5.38e-08	i
Cc1ccc(C)c(N2CCN(C(=O)CN3C(=O)c4ccccc4C3=O)CC2)c1	-0.4%	?	i	6.5e-09	i
COC(=O)c1ccc2[nH]c(C)c(CN3CCCC3)c(=O)c2c1	18.3%	10.3%	i	2.68e-08	i
COc1ccc(-c2nnc(SCC(=O)N3CCC(Cc4ccccc4)CC3)o2)cc1OC	3.5%	?	i	1e-09	i
COc1ccc(N2CCN(C(=O)C(Cc3ccccc3)n3cccc3)CC2)cc1 (configuration not stated)	0.7%	-3.1%	.	.	.
COCCCNCC(=O)Nc1ccc(OC(F)(F)F)cc1	0.7%	-2.4%	i	3.27e-08	i
CC(C)CN1C(=O)c2ccc(C(=O)Nc3nccs3)cc2C1=O	-2.9%	-20.7%	.	.	.
CCc1cccc(OCCCCNCCOC)c1	-1.0%	8.5%	.	.	.
COC(=O)Oc1nsnc1N1CCOCC1	1.5%	-5.5%	i	1.39e-08	i
COc1ccc(CCNS(=O)(=O)c2cccc(F)c2)cc1OC	-0.7%	13.0%	i	1.41e-08	i
COC(=O)c1ccc(C(NC(=O)OCc2ccccc2)/C(=C/[C@@H](C)C(=O)NCc2nc3ccccc3s2)c2cccnc2)cc1 (some centres not stated)	-0.9%	17.9%	.	.	.
O=C(CN1C(=O)COc2ccccc21)N(Cc1ccc2c(c1)OCO2)CC1CCCO1 (configuration not stated)	1.1%	?	i	4.5e-09	i
O=C(Cc1ccccc1)NCCCN1CCN(CCCNC(=O)Cc2ccccc2)CC1	-1.5%	2.2%	i	2.5e-09	i
CNc1ncncc1-c1ccccc1OC	-2.3%	3.2%	i	3.48e-08	i
COc1ccc(C2CC(c3cccs3)n3nc(N)nc3N2)cc1 (configuration not stated)	1.4%	5.1%	.	.	.
COC(=O)[C@]1(C)CCC(c2ccc(C)cc2)=C(CC(=O)O)C1	1.9%[11.5 µM]	-0.4%[11.4 µM]	i	2.7e-09	i
CC(=O)Nc1ccc(-c2nnc(SCC(=O)n3c4c(c5ccccc53)CCCC4)n2C)cc1	-1.1%	5.0%	i	6.5e-09	i
CN(C)CCCNC(=O)c1ccc(-c2ccccc2)cc1	-1.6%	11.7%	i	3.89e-08	i
CCc1ccccc1-n1c(SCC(=O)NC)nnc1-c1cccnc1	1.6%	0.2%	i	1e-09	i
CC(=O)c1c(C)nn(CCC(=O)O)c1C	2.2%	-2.5%	i	2.64e-08	i
NC(=O)c1ccc(N2CCCCC2)c(N2C(=O)C3C4C=CC(C4)C3C2=O)c1 (configuration not stated)	1.3%	1.4%	.	.	.
CCOC(=O)N1CCN(C(=O)c2ccc(Cn3c(=S)[nH]c4cc5c(cc4c3=O)OCO5)cc2)CC1	1.6%	14.3%	i	1e-09	i
CS(=O)(=O)N(CC(=O)N1CCCCCC1)c1ccccc1	1.7%	16.9%	i	2.6e-09	i
CC1CCN(CCCNC(=O)c2cc3sccc3n2C)CC1	-2.5%	11.2%	i	2.58e-08	i
CCN1CCN(C(=O)N[C@@H](C(=O)N[C@@H]2C(=O)N3[C@@H]2SC(C)(C)[C@@H]3C(=O)O)c2ccccc2)C(=O)C1=O	.	.	i	1e-09	i
Cc1cnc(NC(=O)CN(C)S(=O)(=O)c2ccc(Cl)cc2)s1	-1.5%	-2.0%	i	4.39e-08	i
COc1cc2c(cc1OC)CN(Cc1nc3ccsc3c(=O)[nH]1)CC2	7.6%	1.4%	i	1e-09	i
Cc1cccc(NCc2ccccc2O)c1	0.6%	-15.2%	i	2.89e-08	i
COc1ccc2c(=O)cc(C(F)(F)C(F)(F)F)oc2c1	-0.2%	-1.6%[11.4 µM]	.	.	.
CC(=O)Nc1c(C(=O)O)oc2ccc(Cl)cc12	0.5%	30.0%	i	2.46e-08	i
Cc1cc(C)c2cc(C(O)c3nnnn3Cc3ccccc3)c(=O)[nH]c2c1 (configuration not stated)	1.6%	15.2%	i	1e-09	i
COCC(=O)n1nc(NCc2ccc(OC)cc2)nc1NCc1ccc(OC)cc1	1.1%	26.6%	i	1.73e-08	i
Cn1c(=O)oc2cc(S(=O)(=O)N3CCCC(C(=O)N4CCn5c4nc4ccccc45)C3)ccc21 (configuration not stated)	-0.8%	0.4%	.	.	.
Cc1cc2c(nc1C)CCCN2C[C@H](C)O/N=C\[C@@H](C)[C@H](OCc1ccccc1)C(C)C	2.4%[11.5 µM]	-7.4%[11.4 µM]	.	.	.
CC(O)CNc1nc2c(c(=O)n(C)c(=O)n2C)n1CCc1ccccc1 (configuration not stated)	.	.	i	3.9e-09	i
CCN(CC)c1ccc(C2CC(=O)NC3=C2C(=O)CC(C)(C)C3)cc1 (configuration not stated)	-1.0%	-6.0%	i	1e-09	i
O=C(O)C1C2C=CC(O2)C1C(=O)Nc1ccccc1C(F)(F)F (configuration not stated)	-1.1%	-4.5%	i	9.9e-09	i
C=CCN=C(NC#N)SCC(=O)c1cccc(OC)c1	-1.1%	4.9%	i	1e-09	i
C=CCSc1nnc(-c2ccccc2NC(=O)CC)c(=O)[nH]1	0.4%	?	i	6.2e-09	i
COc1ccc(C[N+](C)(C)N)cc1OC	-0.6%[11.5 µM]	3.8%[11.4 µM]	i	1.4e-09	i
COC(=O)CNC(=O)Cc1c(F)cccc1Cl	0.5%	-5.9%	i	1e-09	i
Cc1noc(/C=C/NCc2cccnc2)c1S(=O)(=O)N(C)CC(=O)N1CCc2ccccc21	0.6%	-10.6%	.	.	.
O=C(COC(=O)c1ccc(S(=O)(=O)N2CCOCC2)cc1)NC1CCCCCC1	-0.8%	-2.3%	i	1.16e-08	i
O=C(CSc1ccccn1)N1CCN(C(=O)CSc2ccccn2)CC1	0.2%	6.8%	i	1e-09	i
Cc1csc(NC(=O)C(CC(C)C)NS(=O)(=O)c2ccc3c(c2)oc(=O)n3C)n1 (configuration not stated)	0.2%	3.3%	.	.	.
CCc1ccc(-c2nc(CN3CCC(C(=O)N4CCN(c5ccccn5)CC4)CC3)c(C)o2)cc1	1.0%	19.9%	i	3.22e-08	i
O=C1NC(c2ccccc2)(C(F)(F)F)SC2=NCCCN12 (configuration not stated)	-0.1%	-1.2%	i	1e-09	i
CC(=O)Nc1ccc(S(=O)(=O)NC(CC(=O)NCCCN2CCOCC2)C(C)C)cc1 (configuration not stated)	-0.8%	2.9%	.	.	.
CCOC(=O)N1CCC(C(N)=O)CC1	-1.3%	8.1%	i	1e-09	i
CCOc1ccc(-c2cc(CCCC(=O)Nc3cc(OC)ccc3OC)no2)cc1	-0.5%	?	i	1.03e-08	i

(listing goes on)
SMILES	AID923	TSHR ag	Resorufin fluor	A647 fluor	A488 fluor
Cc1cc(NC(=O)COC(=O)C2COc3ccccc3O2)no1 (configuration not stated)	-1.8%	-1.8%	i	1.8e-09	i
CCCCOCCOCCOCc1cc2c(cc1CCC)OCO2	3.1%	?	.	.	.
CCCCn1c2nc3ccccc3nc2c2c(=O)n(C(C)CC)cnc21 (configuration not stated)	4.6%	?	i	7.5e-09	i
O=C(Cn1cnc2ccccc2c1=O)NCc1ccco1	-0.3%	-5.5%	i	2.67e-08	i
O=C(O)C1CCCCC1C(=O)Nc1nc(-c2cccs2)cs1 (configuration not stated)	-0.9%	-12.6%	i	3.5e-09	i
CC(C)NS(=O)(=O)c1cc(C(=O)O)ccc1Cl	-1.7%	3.7%	i	7.6e-09	i
Cn1c(=O)c2c(nc(SCC(=O)OCc3ccccc3)n2C)n(C)c1=O	-1.8%	13.7%[11.4 µM]	i	2.71e-08	i
COc1cc2c(cc1NC(=O)CN1CCN(S(=O)(=O)c3ccc(F)cc3)CC1)oc1ccccc12	0.0%	7.4%	i	2.81e-08	i
CSc1ccc(S(=O)(=O)NCCOc2ccccc2C)cc1	0.7%	?	i	1e-09	i
CCCn1nnnc1SCC(=O)Nc1nnc(CC)s1	-0.4%	-3.6%	i	1e-09	i

Part of the list above in order of molar mass, smallest number first:
SMILES	AID923	TSHR ag	Resorufin fluor	A647 fluor	A488 fluor
CCCn1nnnc1SCC(=O)Nc1nnc(CC)s1	-0.4%	-3.6%	i	1e-09	i
Cc1cc(NC(=O)COC(=O)C2COc3ccccc3O2)no1 (configuration not stated)	-1.8%	-1.8%	i	1.8e-09	i
COc1cc2c(cc1NC(=O)CN1CCN(S(=O)(=O)c3ccc(F)cc3)CC1)oc1ccccc12	0.0%	7.4%	i	2.81e-08	i

Additional results follow.
SMILES	AID923	TSHR ag	Resorufin fluor	A647 fluor	A488 fluor
CCOCCCNC(=O)CN1C(=O)CSc2cc(S(=O)(=O)N3CCCCCC3)ccc21	-0.2%	.	i	3.67e-08	i
Cc1ccc(NC(=O)c2ccccc2)s1	0.9%	3.9%	i	1.05e-08	i
CC(=O)c1ccc(NS(=O)(=O)c2ccccc2)cc1	-1.5%	3.1%[11.4 µM]	.	.	.
Clc1cccc(Cl)c1COc1ccccn1	-1.7%	-1.7%	i	3.6e-09	i
CCOc1ccccc1NC(=O)CCSc1nc2n[nH]c(C)c2c(=N)n1-c1ccccc1Cl	1.0%	16.6%	i	2.2e-09	i
CC(=NCc1ccco1)c1c(C)[nH]n(-c2nc3ccccc3s2)c1=O	-0.7%	-13.7%	i	1e-09	i
CC(NC(=O)Cc1ccc(F)cc1)C(c1cccs1)N1CCN(C)CC1 (configuration not stated)	2.3%	?	i	2.51e-08	i
CC1(C)CC(n2c(=S)[nH]c3ccccc3c2=O)CCO1 (configuration not stated)	-0.2%	1.7%[11.4 µM]	i	1.46e-08	i
CCCCN(CCCNC(=O)C1CCN(S(=O)(=O)CC)CC1)c1ccccc1	0.3%	1.9%	i	1.48e-08	i
O=c1[nH]c(CN2CCN(c3ccccc3)CC2)nc2ccccc12	-1.3%	11.1%	i	4.28e-08	i
COc1cc(-c2cccs2)cc(=O)c2c(C)oc(C)c12	5.7%	0.5%	i	4.9e-09	i
O=C(Cn1cnnn1)Nc1ccccc1Cc1ccccc1	-0.8%	-0.2%	i	4.51e-08	i
CSc1nc(C)c2cc(C)oc2n1	-0.5%	3.5%	i	4.07e-08	i
COCCN(C(=O)c1csnn1)C(C(=O)NC1CCCCC1)c1cccs1 (configuration not stated)	1.5%	-1.1%	i	1.1e-09	i
C=CCNC(=O)CCCOc1cc(C)ccc1C	-0.8%	14.9%	i	5.91e-08	i
Cc1nn(-c2ccccc2)c2c1C(c1ccccc1)C(C#N)=C(N)O2 (configuration not stated)	-2.0%	-6.0%	.	.	.
C=CCNc1oc(-c2ccc(OCC)cc2)nc1C#N	1.1%	7.2%	i	2.3e-09	i
N#C/C(=C(/O)CSc1nnc(Cc2cccs2)n1C1CCCCC1)c1nc2ccccc2[nH]1	6.3%	4.0%	i	5.78e-08	i
Cn1nccc1C(=O)NCCN1C(=O)OC(C)(C)C1(C)O (configuration not stated)	3.4%	-1.0%[11.4 µM]	i	1.73e-08	i
COc1ccc(C2CC(=O)c3c(C)nc(N4CCN(c5ccccc5)CC4)nc3C2)cc1 (configuration not stated)	-0.1%	24.8%	i	1e-09	i
Cc1ccc(N2C(=O)c3ccc(C(=O)NCCN4CCOCC4)cc3C2=O)cc1	-0.2%	-5.2%	i	1e-09	i

Whole records, quoted from the list. Screens in order: AID923, TSHR ag, Resorufin fluor, A647 fluor, A488 fluor
Entry for O=C(Cn1cnc2ccccc2c1=O)NCc1ccco1 = -0.3%, -5.5%, i, 2.67e-08, i
Entry for CC(O)CNc1nc2c(c(=O)n(C)c(=O)n2C)n1CCc1ccccc1 (configuration not stated) = ., ., i, 3.9e-09, i
Entry for COC(=O)CNC(=O)Cc1c(F)cccc1Cl = 0.5%, -5.9%, i, 1e-09, i
Entry for N#C/C(=C(/O)CSc1nnc(Cc2cccs2)n1C1CCCCC1)c1nc2ccccc2[nH]1 = 6.3%, 4.0%, i, 5.78e-08, i
